Source: PubChem
UCH37 inh: human UCH37 deubiquitinating enzyme inhibition; Q9Y5K5; purified proteasome/UCH37, Ub-AMC cleavage fluorescence; inhibition, % (no concentration beside the values); 330,000 tested, 0.33% active; AID 588478;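 active = mean of two replicates above 20%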;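 also: 0% = compound-free wells with enzyme and 100% = wells lacking proteasome; stock transfer was 100 nL into about 20 µL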
Target sequence (Q9Y5K5 whole entry, looked up): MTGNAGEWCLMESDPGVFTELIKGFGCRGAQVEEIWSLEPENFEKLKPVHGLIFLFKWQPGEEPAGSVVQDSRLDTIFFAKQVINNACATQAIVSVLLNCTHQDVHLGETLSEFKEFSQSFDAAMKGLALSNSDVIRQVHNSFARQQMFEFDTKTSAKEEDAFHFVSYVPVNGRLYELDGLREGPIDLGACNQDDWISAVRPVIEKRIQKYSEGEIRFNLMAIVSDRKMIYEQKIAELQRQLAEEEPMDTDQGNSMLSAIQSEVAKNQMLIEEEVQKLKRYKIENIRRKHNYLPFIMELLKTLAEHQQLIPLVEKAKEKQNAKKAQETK
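Material: Human UCH37 enzyme supplied as purified proteasome complex | Schedule: 30 min compound-proteasome preincubation then 25 min substrate reaction, room temperature | Detection: AMC fluorescence from Ub-AMC cleavage, excitation 355 nm, emission 460 nm | Benchmarks: Wells without proteasome as full block, compound-free enzyme plus substrate as uninhibited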
HNF4A DNA FP: change in binding of human HNF4 alpha to DNA; HNF4a-FITC DNA binding, fluorescence polarization, 1 h; activity change, % at 10 µM; 360,000 tested, 0.3% active; in the data active = activity change above about 30%, passing the limit was not always enough;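 also: controls were the assay level and a saturating level of protein; the project sought stronger binding though the title names inhibitors; some compounds called inactive have numbers as strong as hits; positive values seem to mean higher polarization but the record does not say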
Target sequence (P41235 whole entry, looked up): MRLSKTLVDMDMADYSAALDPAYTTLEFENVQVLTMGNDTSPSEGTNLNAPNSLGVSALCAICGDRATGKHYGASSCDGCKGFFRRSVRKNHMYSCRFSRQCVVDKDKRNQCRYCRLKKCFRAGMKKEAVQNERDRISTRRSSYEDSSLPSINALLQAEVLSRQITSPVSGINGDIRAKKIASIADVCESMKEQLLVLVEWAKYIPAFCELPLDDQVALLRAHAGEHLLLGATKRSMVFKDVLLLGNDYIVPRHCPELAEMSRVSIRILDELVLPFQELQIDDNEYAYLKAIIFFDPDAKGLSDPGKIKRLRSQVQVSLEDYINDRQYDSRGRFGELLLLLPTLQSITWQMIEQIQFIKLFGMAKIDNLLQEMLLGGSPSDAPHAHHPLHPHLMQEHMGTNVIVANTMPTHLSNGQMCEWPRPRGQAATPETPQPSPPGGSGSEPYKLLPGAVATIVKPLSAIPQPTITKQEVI
FGF22 binding: shifts melting point of recombinant human FGF22. 340,000 tested, 1.5% active. AID 651658. recombinant FGF22 thermal shift, SYPRO orange fluorescence; percent of sucrose octasulfate shift, DMSO zero. calls only at 9.99 µM;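 active = melting point raised past a set limit in the mean and every replicate; inconclusive = no clear call; three in four hits are not shown here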
Target sequence (Q9HCT0 whole entry, looked up): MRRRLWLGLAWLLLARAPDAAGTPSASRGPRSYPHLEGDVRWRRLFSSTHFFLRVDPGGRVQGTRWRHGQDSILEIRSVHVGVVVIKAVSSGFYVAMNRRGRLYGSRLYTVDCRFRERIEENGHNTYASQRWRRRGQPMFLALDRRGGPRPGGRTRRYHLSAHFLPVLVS
Vif A3G: inhibitors of Vif binding to APOBEC3G peptide, primary screen, biochemical, TR-FRET, GST-Vif 1-94, biotin-A3G peptide, dose response retest (AID 1117319). inhibition, %, or IC50 in µM where a hit was titrated. TR-FRET GST-Vif / biotin-A3G peptide binding; higher % means a stronger effect; test concentration not given here; strong numbers were not always called active. 260,000 tested, 0.57% active;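 active = above the screen mean plus three standard deviations and confirmed in dose response; inconclusive = results disagree or hit not tested in dose response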;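 also: Vif residues 1-94 fused to GST binding biotinylated APOBEC3G peptide 110-148; 0% = full assay without inhibitor and 100% = GST in place of GST-Vif; retest series ran down from 100 µM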
RanGTP-Imp inh: inhibitors of RanGTP-importin-beta interaction, primary screen, biochemical, FRET, CFP-Ran, YFP-importin-beta, homogeneous. AID 2216. inhibition, % (no concentration beside the values). 300,000 tested, 1.1% active. cell-free CFP-Ran/YFP-importin-beta FRET ratio;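 active = most replicates above 15%; inconclusive = exactly half above 15%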;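 also: 0% = DMSO wells and 100% = Ran loaded with GDP instead of GTP; wells of about 40 µL received 100 nL stock; the first replicate is given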
Ecoli growth: E. coli growth inhibition; 330,000 tested, 0.21% active; OD600 absorbance (concentration not given with the values); AID 1053175; Escherichia coli growth, OD600, 23 h; hits give low values;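 active = OD600 absorbance below the run mean of sample wells minus 3.6 SD, in any replicate, cut at about 0.56 in these data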;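 also: stock transfer was 300 nL into about 60 µL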
AF4-AF9 inh: inhibitors of human MLL-AF4/AF9 interaction | AlphaScreen, biotin-AF4 peptide binding to FLAG-AF9 | 350,000 tested, 0.47% active | inhibition, % at 10 µM | AID 651704;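 active = every replicate reaching a set inhibition limit, whatever the replicate mean, cut at about 25% in these data; inconclusive = mean inhibition reaches that limit but some replicates miss it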;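 also: 0% = plate neutral control median and 100% = total signal loss; the record names both 10 and 1 µM as test concentration; the first replicate is given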
Numbers without * were called inactive; i = inactive; ? = inconclusive; nt = no result given; & = joins results of further samples. Only part of the results is shown. The share of hits here may be higher or lower than overall.

SMILES | UCH37 inh | HNF4A DNA FP | FGF22 binding | Vif A3G | RanGTP-Imp inh | Ecoli growth | AF4-AF9 inh
O=C(O)CN1C(=O)/C(=C\c2cccc(OCc3ccccc3)c2)SC1=S | 12 | 1.9 | i | nt | 0.4 | 0.68 | 0.0
O=S(=O)(NC(=S)c1ccccc1)c1ccc(F)cc1 | 2.0 | 1.3 | i | nt | 1.3 | 0.72 | -0.8
CCCCCn1nnc2c(=O)oc3ccccc3c21 | -0.5 | -0.4 | i | -4% | -3.0 | 0.68 | -1.6
COc1ccccc1-n1cnc2cc(C(=O)NC3CCCC3)ccc21 | 1.8 | 0.5 | nt | -2% | nt | 0.68 | nt
CCOc1ccc(NC(=O)C(C)Oc2ccccc2C(=O)Nc2cccc(Cl)c2Cl)cc1 (stereo unspecified) | -3.4 | -2.6 | nt | -3% | 1.9 | 0.76 | nt
CC(C)(C)NC(=O)C(c1ccco1)N(C(=O)c1ccc(CN2CCOCC2)o1)c1ccccc1 (stereo unspecified) | 5.6 | -2.3 | nt | -3%&-2% | 1.0 | 0.66 | nt
COc1cccc(-c2csc(NC(C)=O)n2)c1 | 1.2 | -1.0 | nt | 1% | 7.7 | 0.71 | nt
O=[N+]([O-])c1cccc(/C=N/N=C\c2ccccc2)c1 | nt | -2.3 | i | nt | -2.0 | nt | -3.0
O=C(Nc1cccc2ccccc12)c1ccc([N+](=O)[O-])cc1 | 5.1 | -3.5 | i | 3% | 8.7 | 0.67 | 6.9
COC(=O)C1(C)NC(c2ccc(O)cc2)C2C(=O)N(c3ccc(C)cc3)C(=O)C21 (stereo unspecified) | 4.3 | 2.9 | i | nt | -5.0 | 0.69 | -3.8
CCCCNC(=S)Nc1ccc2cn[nH]c2c1 | 1.4 | -0.7 | i | 0% | 3.4 | 0.68 | 7.5
Nc1ncnc2c1CCC2 | 8.1 | 2.9 | nt | 0% | 6.4 | 0.66 | nt
CCC(C)NC(=O)C1CCC(=O)N1CCc1ccccc1 (stereo unspecified) | 5.8 | -1.7 | i | -4% | 3.1 | 0.68 | 0.9
CC(=O)COc1ccc2oc(=O)cc(-c3cc4ccccc4o3)c2c1 | -8.5 | -1.6 | i | -2% | 3.3 | 0.68 | 7.8
CCOC(=O)c1c(COC(=O)c2ccco2)nc2ccccc2[n+]1[O-] | 3.9 | -1.4 | nt | 3% | 3.0 | 0.79 | nt
Cc1ccc(NC2=NCCC2)cc1Cl | 1.4 | -1.5 | nt | 18% | 1.2 | 0.69 | nt
O=C(COC(=O)c1cc(Br)ccc1O)NCCC1=CCCCC1 | nt | 1.1 | i | nt | nt | nt | 2.9
CCn1cc(C2=NOC(C(=O)O)C2)c(C)n1 (stereo unspecified) | 3.9 | -1.4 | nt | 12% | -0.6 | 0.7 | nt
O=C(C[C@H]1C/C=C/CC[C@@H](Cc2ccc(F)cc2)C(=O)OC[C@H](c2ccccc2)NC1=O)NCCO | 1.4 | -3.6 | i | nt | nt | nt | -4.4
COc1ccccc1NC(=O)Cc1csc(NC(=S)Nc2ccc(C)cc2)n1 | 1.2 | -1.6 | nt | 3% | 0.8 | 0.68 | nt
COc1cc(/C=C(/NC(=O)c2ccccc2)C(=O)N2CCN(C)CC2)c([N+](=O)[O-])cc1OC | 4.1 | 2.8 | i | nt | -2.7 | 0.68 | 4.1
O=C(CSc1nc2c(c(=O)n1-c1ccc(Cl)cc1)SCC2)Nc1ccc2c(c1)OCCO2 | 3.1 | 4.0 | i | 3% | nt | 0.74 | -3.2
O=C(CCNS(=O)(=O)c1ccc(Br)cc1)N1CCCCCCC1 | 2.3 | -1.4 | i | -3% | 0.5 | 0.67 | -0.8
Cc1ccccc1-n1c(-c2ccncc2)n[nH]c1=S | 6.6 | 5.1 | nt | nt | 2.3 | 0.67 | nt
COc1ccc(NS(=O)(=O)c2ccc(N3CCOCC3)c(NC(=O)c3ccco3)c2)cc1 | -1.1 | 2.2 | i | 24% | -3.6 | 0.71 | -0.2
COc1cc(OC)c2c(N)c(C#N)c(C(F)(F)C(F)(F)F)nc2c1 | -24 | -3.7 | nt | -19% | ? | 0.75 | nt
CC(C)C[C@@H]1O[C@H](CCc2ccccc2)Cc2[nH]c(=S)[nH]c(=O)c21 | nt | 2.6 | i | nt | nt | nt | -25
CCOc1ccc(NC(=S)NNC(=O)c2cc(Br)ccc2Cl)cc1 | 4.6 | 3.9 | i | 7% | 1.8 | 0.71 | 1.2
Cc1noc(C)c1CSc1nc2ccccc2c(=O)n1-c1ccccc1 | 4.8 | 0.4 | nt | 6% | -0.2 | 0.75 | nt
COc1ccc(NC(=O)Nc2c[nH]c(=O)[nH]c2=O)cc1 | 3.1 | 0.9 | i | 0% | 3.1 | 0.67 | -0.9
COc1ccc(S(=O)(=O)NCC2CCCN(Cc3ccc(O)cc3)C2)cc1 (stereo unspecified) | 0.6 | -0.6 | i | nt | -0.7 | 0.73 | 0.1
O=C(Cn1ccc(C(F)(F)F)n1)N=Nc1c(O)[nH]c2ccccc12 | 4.3 | 3.3 | i | -6% | -3.8 | 0.67 | 2.2
O=C(Nc1nnc(-c2ccccc2)s1)c1ccc(Cl)c(S(=O)(=O)N2CCOCC2)c1 | nt | nt | nt | 5% | 0.5 | 0.7 | nt
COc1cc(OC)c2ccc(=O)oc2c1C(CC(=O)N1CCN(c2ccccc2)CC1)c1ccc2c(c1)OCO2 (stereo unspecified) | -1.7 | -7.3 | i | nt | ? | 0.73 | -15
CN(C)c1ncnc(N(C)C)c1[N+](=O)[O-] | 9.7 | 3.6 | i | nt | ? | 0.66 | 1.2
COc1ccc(NS(=O)(=O)c2ccc(N/N=C/c3ccc(N4CCOCC4)cc3)c([N+](=O)[O-])c2)cc1 | nt | -4.5 | i | -7% | 1.2 | nt | -2.6
CC1(C)CNC(=O)c2sc(N3CCOCC3)nc2C1 | 5.7 | -0.5 | i | -3% | -3.8 | 0.69 | 3.7
O=C(CN1CCN(c2ccc(O)cc2)CC1)Nc1ccccc1C(=O)NCCc1ccccc1 | 1.4 | -1.8 | i | 18% | nt | 0.7 | 3.7
CCc1ccc(NC(=O)c2cc(C)no2)cc1 | 5.8 | 0.1 | i | 0% | 6.3 | 0.66 | 0.9
COc1ccccc1N(C(C)=O)c1nc(C)cc(C)c1C#N | 1.4 | 0.9 | nt | 12% | 0.0 | 0.83 | nt
COc1ccc(C(=O)NNC(=O)c2cc3cc(OC)ccc3oc2=O)cc1 | -27 | -1.1 | i | -14% | -1.6 | 0.68 | -0.6
CC1(C)NC(=O)N(CN2C(=O)NC(C)(C)C2=O)C1=O | 2.7 | 0.2 | nt | 11% | -2.0 | 0.71 | nt
O=C(N/C(=C\c1ccc(-c2ccccc2)o1)C(=O)N1CCOCC1)c1ccccc1 | 6.0 | 6.3 | i | -3% | nt | 0.68 | 14
CCC(C)Sc1nnc(-c2c[nH]c3ccccc23)n1CCOC (stereo unspecified) | 1.5 | 5.2 | nt | 8% | 9.0 | 0.7 | nt
O=C(CN1CCCCC1)Nc1nnc(-c2ccc([N+](=O)[O-])cc2)s1 | 4.1 | -11 | nt | 4% | 0.0 | 0.69 | nt
CC(=O)Nc1ccc(OC(=O)c2ccc(Cl)cc2)cc1 | 0.3 | 1.5 | i | -3% | -2.0 | 0.71 | 0.9
O=C(NNC(=O)c1ccccc1Cl)c1ccc(-n2cncn2)c([N+](=O)[O-])c1 | 4.0 | 2.1 | i | -6% | nt | 0.69 | -3.5
COc1cc(C(=O)N[C@H](C(=O)NC2CCCc3ccccc32)C(C)C)cc(OC)c1OC (stereo partly specified) | 0.6 | -3.0 | i | nt | nt | 0.69 | -2.9

Of the compounds above, 3 contain bromine:
SMILES | UCH37 inh | HNF4A DNA FP | FGF22 binding | Vif A3G | RanGTP-Imp inh | Ecoli growth | AF4-AF9 inh
O=C(COC(=O)c1cc(Br)ccc1O)NCCC1=CCCCC1 | nt | 1.1 | i | nt | nt | nt | 2.9
O=C(CCNS(=O)(=O)c1ccc(Br)cc1)N1CCCCCCC1 | 2.3 | -1.4 | i | -3% | 0.5 | 0.67 | -0.8
CCOc1ccc(NC(=S)NNC(=O)c2cc(Br)ccc2Cl)cc1 | 4.6 | 3.9 | i | 7% | 1.8 | 0.71 | 1.2

The results go on.
SMILES | UCH37 inh | HNF4A DNA FP | FGF22 binding | Vif A3G | RanGTP-Imp inh | Ecoli growth | AF4-AF9 inh
c1ccc(CNc2nc(-c3cccnc3)nc3ccccc23)cc1 | 3.0 | 4.0 | i | -13% | -3.6 | 0.65 | 2.0
CCn1cc(/C=C/C(=O)Nc2ccn(Cc3c(F)c(F)c(F)c(F)c3F)n2)cn1 | 3.1 | 0.2 | i | nt | 5.7 | 0.71 | 5.4
CC(C)(C)c1ccccc1NC(=O)c1ccco1 | 4.3 | -2.5 | nt | 4% | 3.9 | 0.69 | nt
Cc1ccc(C(C)C)c(OCC(=O)Nc2cccc(S(=O)(=O)NC3=NCCCCC3)c2)c1 | 0.2 | -1.3 | i | 3% | 5.2 | 0.68 | -0.2
O=C(CSc1nccn1-c1ccccc1)c1ccc(Br)cc1 | 3.5 | 8.9 | nt | 19% | 0.2 | 0.81 | nt
C[C@@]12C(=O)N(Cc3ccccc3)CC(=O)N1[C@H](/C=C/c1ccccc1)[C@@H]1C(=O)N(c3ccccc3)C(=O)[C@@H]12 | 5.2 | nt | i | nt | 3.2 | 0.75 | 1.3
OCc1nn2c(c1Br)NC(c1ccccc1)CC2C(F)(F)F (stereo unspecified) | 5.3 | 0.7 | nt | -3% | 2.7 | 0.78 | nt
O=C(C[C@H]1C[C@H](C(=O)N2CCCCC2)[C@@]2(CCc3ccccc3)c3[nH]c4ccc(Cl)cc4c3CCN2C1=O)NCCCn1ccnc1 | 2.1 | 0.8 | i | nt | nt | 0.68 | 12
CCC1(CC)C(=O)C2=C3C1[C@H](C(=O)OC)C=C(C(=O)OC)C[C@H]3n1c(=O)n(C)c(=O)n1[C@H]2C (stereo partly specified) | 1.0 | -1.6 | i | nt | 0.1 | nt | 1.6
COc1ccc(NC(=O)c2cc3ccccn3n2)cc1 | 1.9 | 1.0 | i | 76% | -2.2 | 0.65 | 7.0
CC(=O)Nc1ccc(NC(=O)CN(c2ccc(C(C)C)cc2)S(=O)(=O)c2ccccc2)cc1 | 4.2 | 4.7 | i | 2% | -3.1 | 0.67 | -12
CCCCOc1ccc(-c2cn3ccccc3n2)cc1[N+](=O)[O-] | -1.1 | 1.1 | i | nt | 0.7 | 0.72 | 1.1
Cc1ccc(CNC(=O)c2c(-c3ccccc3)noc2C)cc1 | 3.7 | 3.1 | i | nt | -3.0 | 0.63 | 1.0
C=CCN1C(=O)C2(OCCCO2)c2ccccc21 | 6.5 | -3.2 | i | 16% | -4.2 | 0.62 | -0.4
O=C(Nc1nc2c(F)cc(F)cc2s1)C1CC(=O)N(Cc2ccco2)C1 (stereo unspecified) | -4.2 | 2.4 | i | nt | -3.1 | 0.72 | -1.2
COc1cc2c(cc1OC)/C(=C/C(=O)c1ccc(F)cc1)NCC2 | 7.4 | -1.8 | i | -4% | -2.3 | 0.68 | 10
C[C@@H]1CN([C@@H](C)CO)C(=O)CCCn2nncc2CO[C@H]1CN(C)S(=O)(=O)c1ccc(-n2cccn2)cc1 | nt | 2.1 | i | nt | nt | nt | -9.1&-1.7
COc1ccc(Nc2nnc(SCc3cc(=O)n4ccsc4n3)s2)cc1 | 0.5 | -7.0 | nt | 3%&20% | -12 | 0.71 | nt
CCOC(=O)C1=C(C)NC(C)=C(C(=O)OCC)C1C(=O)OCC(=O)N(C)C | -17 | -1.9 | nt | -1% | 0.6 | 0.69 | 6.8
